Rango release inh: prevents RanGTP from dissociating the Rango-importin beta complex; Potency, µM (series often up to 46.1 µM), for the others: at the highest dose activity change, negative = inhibition; AID 540253; O95149+P62826; Biochemical FRET Rango-importin beta, RanGTP-induced dissociation; 340,000 tested, 0.071% active; active means falling FRET ratio curve, often poorly fitted, with flat reads before Ran was added; inconclusive means other falling curves, or compound fluorescence or quenching; inactive means flat or rising ratio curve;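 also: potency is read from the fitted curve at half-maximal effect; % of control where 0% means no effect; nearly all actives have a fitted effect of over 45% in size; -100% = wells without RanGTP and RCC1; the record marks most hits as doubtful in a second field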
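Rango (0.1 uM)–importin beta (0.25 uM) complex; RanGTP-RCC1 trigger; 45 min RT; CFP/YFP FRET read.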
miR-21 reporter: miR-21 reporter, rising signal; HeLa miR-21 FLuc reporter, luciferase, 48 h; Potency, µM (series often up to 38.3 µM), inactives show at the highest dose reporter change, positive = more light; 340,000 tested, under 10 active; AID 2288; active = well fitted rising curve with a large enough effect; inconclusive = small, poorly fitted or top-dose-only effect; inactive = no such curve, though single readings can be large or run the other way;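 also: % of control where 0% means no effect; miR-21 action dims this reporter so a rising signal means less miR-21 action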
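Compounds were titrated across several concentrations (up to approximately 40 uM) and incubated 48 hours with HeLa miR-21-FLuc reporter cells (miR-21 target sequence downstream of FLuc, endogenous miR-21). Readout was firefly luciferase luminescence after lytic detection reagent.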
Rango complex inh: inhibitors of Rango-importin beta complex formation; 340,000 tested, 0.031% active; Potency, µM (top dose mostly 92.2 µM), for inactives: top-dose inhibition of complex formation; Rango CFP/YFP FRET sensor + importin beta, 45 min; active = rising FRET ratio curve, often small or poorly fitted; inconclusive = mostly compound fluorescence or quenching in the first reads; inactive = flat curves in all reads;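 also: potency is read from the fitted curve at half-maximal effect; 0% = DMSO wells and 100% = buffer wells lacking importin beta; nearly all actives have a fitted effect of over 15% in size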
Target sequence (Q14974 whole entry, looked up): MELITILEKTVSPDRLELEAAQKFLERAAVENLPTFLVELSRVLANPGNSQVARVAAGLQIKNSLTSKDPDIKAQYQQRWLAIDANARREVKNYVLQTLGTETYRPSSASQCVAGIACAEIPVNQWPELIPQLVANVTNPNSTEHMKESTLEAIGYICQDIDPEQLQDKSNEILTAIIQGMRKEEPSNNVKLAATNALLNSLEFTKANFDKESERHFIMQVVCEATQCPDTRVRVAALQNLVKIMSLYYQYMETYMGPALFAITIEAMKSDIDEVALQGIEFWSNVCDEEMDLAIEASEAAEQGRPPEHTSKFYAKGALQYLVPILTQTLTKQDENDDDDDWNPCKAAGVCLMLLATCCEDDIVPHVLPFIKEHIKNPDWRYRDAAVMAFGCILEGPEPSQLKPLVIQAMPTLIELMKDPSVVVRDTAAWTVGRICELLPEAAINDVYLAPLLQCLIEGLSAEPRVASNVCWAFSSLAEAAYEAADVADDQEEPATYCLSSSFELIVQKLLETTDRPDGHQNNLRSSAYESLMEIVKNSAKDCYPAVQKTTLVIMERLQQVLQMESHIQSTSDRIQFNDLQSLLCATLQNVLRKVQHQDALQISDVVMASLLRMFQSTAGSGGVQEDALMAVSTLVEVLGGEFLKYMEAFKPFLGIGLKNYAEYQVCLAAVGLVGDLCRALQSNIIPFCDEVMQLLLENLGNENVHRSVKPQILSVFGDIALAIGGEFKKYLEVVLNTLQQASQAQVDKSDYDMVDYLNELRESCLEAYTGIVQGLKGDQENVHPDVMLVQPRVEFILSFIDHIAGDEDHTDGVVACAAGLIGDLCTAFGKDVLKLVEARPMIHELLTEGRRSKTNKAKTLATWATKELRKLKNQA
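FRET biosensor Rango (snurportin 1 IBB between N-terminal EYFP and C-terminal Cerulean), 50 nM in PBS/1 mM DTT/0.02% Tween-20/0.1% BSA, preincubated 5 min RT with compound; 0.125 microM importin beta added, 45 min RT, CFP/YFP FRET ratio read.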
GLA inh pH 4.5: inhibitors of human alpha-galactosidase A at pH 4.5 | P06280 | purified enzyme, 4-MU-alpha-Gal fluorescence, pH 4.5 | activity change, negative = inhibition, % at 105 µM | 230,000 tested, under 10 active | AID 1467; inconclusive = small, poorly fitted or top-dose-only inhibition, or a rising curve; inactive = flat fitted curve, though single readings scatter; no compound was filed as active;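 also: 0% = full activity with enzyme and -100% = basal without enzyme; dose as in the result columns while the protocol names 77 µM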
* hit, by the source's call; ? = inconclusive; · = no result given. Only part of the results is shown; count on the stated rates, not on these rows.

Rango release inh | miR-21 reporter | Rango complex inh | GLA inh pH 4.5 | mol
12% | -2% | 5.4% | -1 | CCOC(=O)c1ccc(NC(=O)c2nc[nH]c2C(=O)N[C@@H](CC(C)C)C(=O)OCc2ccccc2)cc1
-4% | -1% | -3.6% | -1 | O=C(CCCNS(=O)(=O)c1cccc2nsnc12)NCCc1ccccc1
27% | -25% | 2.2% | 8 | COC(=O)c1oc2ccccc2c1N
-11% | -3% | ? | -3 | CCCCOc1ccccc1N
-6% | · | 0.5% | · | O=C(O)c1cc(=S)nc[nH]1
? | -4% | ? | · | COCCCNC(=O)/C(C#N)=C/c1c(N2CCN(C)CC2)nc2ccccn2c1=O
-6% | · | 2.4% | · | CCOc1ccccc1OCCCC(=O)N(CC)CC(=O)Nc1ccc(NC(C)=O)cc1
1% | · | 1.3% | · | CCOc1ccccc1OCC(=O)OCc1csc(CC(=O)Nc2ccccc2C)n1
14% | -10% | -0.1% | -2 | COc1ccccc1Nc1nc(N)nc(CN2CCc3ccccc3C2)n1
-7% | -9% | 1.2% | -4 | CC(=O)Nc1ccc(S(=O)(=O)NCCc2ccc(F)cc2)cc1
13% | -6% | -1.0% | 0 | O=C(N/N=C\c1ccc(O)c([N+](=O)[O-])c1)c1ccccc1-n1cccc1
? | · | ? | · | O=c1oc(-c2ccc(O)c(O)c2)cc2cccc(O)c12
-1% | -6% | 4.6% | · | O=C(Cc1ccccc1)Nc1ccc(C(=O)Nc2ccccc2C(=O)O)cc1
8% | -5% | 0.1% | -15 | CCN(CC)S(=O)(=O)c1ccc2nc(SC)sc2c1
12% | -13% | -1.7% | -2 | CN(C)S(=O)(=O)c1cccc(NC(=S)N/N=C/c2ccco2)c1
20% | -16% | 12% | 8 | COc1ccc2cc3cc(C(=O)NCCN4CCc5ccccc5C4)sc3nc2c1
-9% | -7% | -2.1% | 2 | COc1ccccc1N1CCN(S(=O)(=O)c2cn(C)c(=O)n(C)c2=O)CC1
11% | 1% | 0.4% | 0 | Cn1cccc1/C=N/n1c(-c2ccccc2)n[nH]c1=S
13% | 0% | -0.9% | -1 | CCc1nnc(NC(=O)C2c3ccccc3Oc3ccccc32)s1
-10% | · | -0.2% | · | N/C(=N\OC(=O)CCCN1C(=O)c2ccccc2C1=O)c1ccc(Br)cc1
1% | -48% | ? | -4 | O=S(=O)(Nc1nc2ccccc2nc1N1CCc2ccccc2C1)c1ccc(Cl)cc1
-6% | · | 1.5% | · | O=[N+]([O-])c1cc2c(c3cccnc13)COCO2
10% | -3% | 0.7% | · | CCC(C)(C)NC(=O)C(c1ccccc1Cl)N(C(=O)CCC(=O)Nc1cc(C)on1)c1ccc(NC(C)=O)cc1 (stereo not given)
7% | -19% | 1.8% | 11 | Cc1oc2c(c1C(=O)Nc1ccc(C(=O)O)cc1)CCCC2
-15% | · | 0.2% | 6 | CCN1C(=O)N[C@@H](c2cccs2)C(C(=O)OC)=C1C
-6% | -52% | ? | -4 | COC(=O)CSc1nc2cc(C)ccc2cc1C#N
12% | -6% | 0.8% | 4 | Cc1ccc(-c2csc(NC(=O)C3CC=CCC3C(=O)O)c2C(=O)OC(C)C)cc1 (stereo not given)
0% | · | 1.8% | · | CCOc1ccccc1OCCCC(=O)Nc1ccc(Cl)c(S(=O)(=O)N2CCOCC2)c1
4% | -40% | -0.1% | -7 | CSc1ccc(CNc2ccc(Cl)cc2)cc1
-11% | -6% | -3.0% | · | Cc1ccnc2c1ccc1ccccc12
10% | -11% | -1.8% | 2 | CC(NC(=O)COc1ccccc1)C(=O)NC1=NCCS1 (stereo not given)
11% | 0% | -0.6% | 0 | CC1CC(=O)N(C)c2cc([N+](=O)[O-])ccc2N1 (stereo not given)
44% | -31% | -2.3% | · | COc1cccc(-c2nnn(CC(=O)N3CCC(C)CC3)n2)c1
11% | 1% | -2.5% | 10 | CCOC(=O)c1sc2nc(N3CCOCC3)c3c(c2c1N)CCCC3
-2% | · | -0.5% | · | Cc1ccc(C(=O)OCC(=O)NNC(=O)c2ccc([N+](=O)[O-])cc2)o1
-1% | -1% | -0.6% | · | CCOC(=O)CNC(=O)c1cc2c(=O)[nH]c3ccc(C)cc3c2s1
15% | -17% | -0.4% | -1 | CC(=O)Nc1ccc(NC(=O)Cn2c(=O)n(-c3ccc(F)cc3)c(=O)c3oc4ccccc4c32)cc1
1% | · | -3.3% | · | Cc1ccccc1NC(=O)C(C)OC(=O)CCC(=O)N(CC(C)C)c1c(N)n(CC(C)C)c(=O)[nH]c1=O (stereo not given)
14% | -1% | 5.8% | -3 | Cc1cc(NC(=O)CSc2nnc(-c3ccncc3)n2Cc2ccccc2)n(-c2ccccc2)n1
-12% | -3% | 1.9% | · | COc1ccc(C)cc1NC(=O)C1CCCN(S(=O)(=O)c2cccs2)C1 (stereo not given)

Reformatted: two of the compounds above
Values in the order – Rango release inh	miR-21 reporter	Rango complex inh	GLA inh pH 4.5
> CCOC(=O)CNC(=O)c1cc2c(=O)[nH]c3ccc(C)cc3c2s1
→ -1%	-1%	-0.6%	·
> CC(=O)Nc1ccc(NC(=O)Cn2c(=O)n(-c3ccc(F)cc3)c(=O)c3oc4ccccc4c32)cc1
→ 15%	-17%	-0.4%	-1

One compound at a time (already shown). Values in the order: Rango release inh, miR-21 reporter, Rango complex inh, GLA inh pH 4.5
COc1cccc(-c2nnn(CC(=O)N3CCC(C)CC3)n2)c1 is listed with 44%, -31%, -2.3%, ·
Cc1ccnc2c1ccc1ccccc12 is listed with -11%, -6%, -3.0%, ·

Following part.
Rango release inh | miR-21 reporter | Rango complex inh | GLA inh pH 4.5 | mol
-10% | -4% | ? | 5 | Cc1ccc2c(C)c(C(=O)Nc3nnc(C)s3)oc2c1
? | -2% | ? | 26 | CC1(C)CC(=O)C2=C(C1)N(CCN1CCOCC1)C1=C(C(=O)CC(C)(C)C1)C2c1cccc(F)c1
-14% | -1% | -2.9% | 2 | CN1CCN(/C=N/C2=C(C#N)C(c3ccccc3)C3=C(CC(C)(C)CC3=O)O2)CC1 (stereo not given)
-9% | 10% | 0.6% | -7 | COc1ccc(NC(=O)Cn2c(C(C)C)nc(C)cc2=O)cc1Cl
3% | -3% | 5.3% | 6 | NNC(=O)c1nn(-c2ccc(Cl)cc2)cc1O
9% | · | 4.1% | · | COc1cccc(NC(=O)CN(C)C(=O)c2cc3ccccc3cc2OC)c1
0% | -5% | -0.5% | 8 | O=C(CCCSc1nc2sc3c(c2c(=O)[nH]1)CCC3)NCCO
-11% | · | 5.2% | · | COc1ccc(C(=O)OCC(=O)NC2CC2)cc1OC
-12% | · | -1.9% | · | COc1ccc(C(CNC(=O)CSc2ccccc2F)N2CCOCC2)cc1 (stereo not given)
-18% | -25% | -1.6% | -15 | CCc1ccc(OCC(=O)N(CC)CC)cc1
15% | -16% | -1.1% | -8 | CC(=O)Oc1ccc2c(=O)c(Oc3ccccc3)c(C)oc2c1OC(C)=O
23% | -10% | -4.3% | 2 | COc1ccccc1-n1c(CNC(=O)c2ccc(S(=O)(=O)N3CCOCC3)cc2)n[nH]c1=S
7% | 3% | 3.5% | · | CCC(C)(C)NC(=O)C1CCC(CNS(=O)(=O)c2cccc3nsnc23)CC1 (stereo not given)
-6% | · | -0.2% | · | O=C(Cc1ccc2c(c1)OCCO2)Nc1ccc(Cl)c(S(=O)(=O)N2CCOCC2)c1
6% | 0% | 1.9% | 7 | CC(C)CNC(=O)COC(=O)c1ccc(Cl)c(S(N)(=O)=O)c1
-6% | -3% | 7.4% | -18 | O=c1[nH]c(NC2CCCCC2)nnc1Cc1ccccc1
? | -7% | 7.1% | -3 | Cc1cc2c(c(=O)o1)C(c1cccs1)C(C#N)=C(N)O2 (stereo not given)
-7% | -14% | 0.0% | -7 | COc1cc2c(cc1OC)C(c1ccc(C)o1)CC(=O)N2 (stereo not given)
5% | -9% | 0.3% | 10 | COc1ccc(N2C(=O)CC(Nc3ccc(N4CCOCC4)cc3)C2=O)c(OC)c1 (stereo not given)
-19% | 0% | -0.6% | 5 | CCCCc1ccc(N2C(=O)[C@@H]3C(CC(N)=O)NC4(C(=O)Nc5ccc(F)cc54)[C@@H]3C2=O)cc1 (stereo not given in full)

Look-ups from the results shown.
`COc1ccc(C(=O)OCC(=O)NC2CC2)cc1OC` in Rango complex inh shows 5.2%
`NNC(=O)c1nn(-c2ccc(Cl)cc2)cc1O` in Rango release inh shows 3%
`CCc1ccc(OCC(=O)N(CC)CC)cc1` in Rango complex inh shows -1.6%

Continued.
Rango release inh | miR-21 reporter | Rango complex inh | GLA inh pH 4.5 | mol
5% | -6% | -3.7% | · | COc1cc(C(=O)Nc2ccc3c(c2)ncn3C(C)(C)C)cc(OC)c1OC
-1% | -4% | 3.2% | 4 | COc1cccc(CCN2C(=O)C(=O)N([C@@H](CNCc3ccccc3)Cc3ccccc3F)C[C@@H]2C(C)(C)C)c1
15% | 21% | 6.9% | -18 | Cc1c(CCOC(=O)CC23CC4CC(CC(C4)C2)C3)sc[n+]1CC(=O)c1ccccc1
0% | 1% | 8.6% | 9 | O=C(CCC(=O)c1ccccc1)NCCOc1ccccc1
8% | -76% | 4.9% | 6 | O=C(CSc1cccs1)Nc1cccc2ccccc12
? | -51% | ? | 3 | CCOC(=O)c1ccc(N/C=C/C(=O)c2ccco2)cc1
15% | -16% | -0.6% | 14 | O=C(Nc1cc(Cl)ccc1Cl)c1ccc(-c2ccccc2)cc1
4% | -56% | -3.1% | · | Clc1ccccc1-c1nnc(-c2cccnc2)o1
11% | -6% | 0.4% | · | COc1ccc(C(=O)Nc2cccc(C(=O)N/N=C/c3ccc(OC)cc3OC)c2)cc1
-5% | -9% | -1.4% | 8 | CCCS(=O)(=O)N1CCN(S(=O)(=O)c2ccccc2)CC1
-11% | -75% | 0.1% | -2 | Cc1ccc(OCCn2c(=O)n(C)c3ccccc32)cc1
7% | 0% | 0.6% | · | CCOC(=O)C1(Cc2cccc(Cl)c2)CCCN(C(=O)c2c(CC)noc2C)C1 (stereo not given)
-3% | -6% | 0.2% | 5 | Cc1csc2c(SCC(=O)NNS(=O)(=O)c3cccc(C(F)(F)F)c3)ncnc12
1% | -3% | 1.2% | · | CCCn1c2ccccc2c2cnn(CC(=O)NC3CCCCC3C)c(=O)c21 (stereo not given)
-21% | 5% | 0.6% | · | CN(C(=O)CN1C(=O)S/C(=C\c2cccc(Cl)c2)C1=O)C1CCS(=O)(=O)C1 (stereo not given)
9% | 9% | 0.7% | 3 | O=[N+]([O-])c1ccc(CSc2nnc(Cc3ccccc3)n2-c2ccc(F)cc2)cc1
1% | · | 4.6% | · | Cn1cnc([N+](=O)[O-])c1S(=O)(=O)Oc1ccc(Cl)cc1
1% | -4% | -3.3% | · | O=S(=O)(c1ccc(F)cc1)N1CCCNCC1
0% | -5% | 1.1% | 1 | C/C(=N\OCC(=O)Nc1ccc2c(c1)OCCO2)c1ccc2c(c1)OCCO2
-2% | -2% | -0.2% | 1 | CCOC(=O)n1c(=O)n(Cc2cccc(F)c2)c2ccccc21
-4% | -2% | -0.2% | -1 | CCOC(=O)c1c(C)nc2c(c1-c1ccc(OC)c(OC)c1)C(=O)c1ccccc1-2
0% | -1% | 0.0% | 6 | CCOC(=O)C1=C(C)NC(C)=C(C(=O)OCC)C1C(=O)OCC(=O)N(C)C1CCS(=O)(=O)C1 (stereo not given)
1% | -17% | 2.2% | · | Cc1cccc(C(=O)NNC(=O)c2ccccc2[N+](=O)[O-])c1
· | 21% | · | 0 | CN1Cc2cc(C(=O)c3cc(Cl)cc(CSc4ncccn4)c3O)cnc2NC1=O
-20% | -11% | -2.3% | 9 | C1=C(c2ccccc2)CCN(c2ncnc3nc[nH]c23)C1
8% | · | -3.1% | · | CCOc1ccc(OCCC(=O)OCC(=O)N(CC)c2c(N)n(Cc3ccccc3)c(=O)[nH]c2=O)cc1
15% | 4% | 3.4% | 2 | CCN(C(=O)COC(=O)c1ccc(OCc2c(C)noc2C)cc1)c1ccccc1
-7% | 3% | -1.6% | 0 | FC(F)Oc1ccc(NC(=S)NCc2ccco2)cc1Cl
8% | 8% | -0.8% | 0 | COc1ccc2cc3c(N)nn(C(=O)c4cccc([N+](=O)[O-])c4)c3nc2c1

Compound activity: PubChem, National Center for Advancing Translational Sciences (NCATS)
